TRPV1 PAM: potentiators of human vanilloid receptor 1 (TRPV1). Q8NER1. potentiation, % at 8.33 µM. TRPV1-expressing cells, Fluo-8 calcium influx, capsaicin EC20 potentiation; host cell line not named in the record; control for the full effect not named in the record. actives 0.02% (n = 320,000); active means potentiation above 80%; inconclusive means 30% to 80%; inactive means below 30%; also: 0% is about no effect
Target sequence (Q8NER1 whole entry, looked up): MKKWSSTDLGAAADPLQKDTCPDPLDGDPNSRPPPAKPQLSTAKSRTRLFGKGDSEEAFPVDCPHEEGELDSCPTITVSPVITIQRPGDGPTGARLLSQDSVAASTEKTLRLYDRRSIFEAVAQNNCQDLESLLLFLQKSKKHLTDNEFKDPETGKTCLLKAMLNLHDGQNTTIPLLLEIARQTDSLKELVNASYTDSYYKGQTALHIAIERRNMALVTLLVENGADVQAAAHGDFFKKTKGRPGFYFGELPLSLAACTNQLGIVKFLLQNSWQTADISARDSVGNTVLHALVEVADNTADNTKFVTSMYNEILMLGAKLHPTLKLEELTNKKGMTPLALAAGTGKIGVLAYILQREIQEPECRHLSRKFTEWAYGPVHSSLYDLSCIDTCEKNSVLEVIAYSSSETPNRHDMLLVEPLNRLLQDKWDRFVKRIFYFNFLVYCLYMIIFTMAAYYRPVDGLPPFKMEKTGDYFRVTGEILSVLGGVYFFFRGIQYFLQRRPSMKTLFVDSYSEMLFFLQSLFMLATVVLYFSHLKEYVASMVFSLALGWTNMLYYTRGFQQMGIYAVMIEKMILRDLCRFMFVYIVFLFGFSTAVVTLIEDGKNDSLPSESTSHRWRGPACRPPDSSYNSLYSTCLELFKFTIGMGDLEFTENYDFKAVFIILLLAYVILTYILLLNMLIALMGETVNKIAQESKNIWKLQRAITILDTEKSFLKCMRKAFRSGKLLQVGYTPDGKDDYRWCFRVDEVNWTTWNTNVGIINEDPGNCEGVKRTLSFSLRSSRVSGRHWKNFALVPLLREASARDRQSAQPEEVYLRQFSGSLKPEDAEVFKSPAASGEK
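TRPV1-expressing cells were cultured overnight at 35.5C and loaded with Fluo-8 calcium dye for 40 to 90 min at room temperature. After a 10 s baseline, compound was added and calcium influx was read kinetically for 3 min (ex 480/em 520 nm).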
Sfp inh: Sfp phosphopantetheinyl transferase inhibition | Potency, µM, for inactives: max response, negative = inhibition, most hits filed as inhibitors | actives 3.5% (n = 310,000) | Biochemical Sfp PPTase activity, qHTS | Q9F4F7; active = well fitted inhibition curve with a large enough effect; inconclusive = small, poorly fitted or top-dose-only effect, or another doubt; inactive = no such curve, though single readings can be large or run the other way;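 also: the enzyme is Sfp with the accession as filed and its product quenches rhodamine fluorescence; potency is read from the fitted curve at half-maximal effect; 0% = enzyme reaction without inhibitor and -100% = no enzyme wells; top concentration of the series not given in the record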
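Sfp 15 nM + cpd, 15 min RT; start w/ rhodamine-CoA 5 uM, BHQ-2-YbbR 12.5 uM (final); 50 mM Hepes pH 7.6, 10 mM MgCl2, 0.01% NP-40, 0.01% BSA; read 525/598 nm at 0 and 30 min.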
ClpP mod: qHTS Assay for Activators of ClpP; ATP-dependent Clp protease proteolytic subunit (Bacillus subtilis (strain 168)), P80244; purified B. subtilis ClpP, FRET peptide cleavage, 20 min; Potency, µM (series often up to 57.5 µM), for inactives: at the highest dose activity change, negative = active; actives 1.9% (n = 340,000); AID 651965, 2013; active = well fitted falling curve with a large enough effect; inconclusive = small, poorly fitted or top-dose-only effect; inactive = no such curve, though single readings can be large or run the other way; also: potency is read from the fitted curve at half-maximal effect; the source files actives as falling curves though it sought activators and does not explain the sign; nearly all actives have a fitted effect of over 65% in size; many hits overshoot -100%
Target sequence (P80244 whole entry, looked up): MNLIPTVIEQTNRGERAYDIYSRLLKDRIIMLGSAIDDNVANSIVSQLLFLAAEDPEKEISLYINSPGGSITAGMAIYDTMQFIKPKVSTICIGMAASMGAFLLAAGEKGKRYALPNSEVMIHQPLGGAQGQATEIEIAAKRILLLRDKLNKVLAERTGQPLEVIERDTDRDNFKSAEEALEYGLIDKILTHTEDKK
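Purified B. subtilis ClpP, 10 microg/mL final in Tris/HCl pH8 with KCl, BSA, glycerol and Tween-20, cleaved an Abz/nitrotyrosine-quenched decapeptide. Fluorescence (ex 320, em 430) was read at 0 and 20 min at room temperature. Delta was normalized to 5.8 microM ADEP and DMSO/no-enzyme controls.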
TRPML1 blocker: inhibitors of human TRPML1 channel; TRPML1-inducible cells, Ca2+ dye fluorescence, FDSS; hits give low values; inhibition of EC80 agonist-evoked calcium signal; activity change, negative = inhibition, % (test concentration not listed); actives 0.02% (n = 390,000); in the data active means activity change below about -50%; inconclusive means about -30% to -50%; inactive means above about -30%;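 also: stimulus is agonist 54-4 at its EC80 concentration; % is scaled to controls: 0 for no effect and ±100 for the full control effect; compound concentration not given in the record; the text of the record puts the active cut at -80%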
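Tet-induced TRPML1-DL cells loaded with Ca8 no-wash calcium dye were read kinetically on FDSS. Compound addition was followed by EC80 agonist 54-4 (4 uM final); inhibition was read over 110 s.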
Menin-MLL FL inh: inhibitors of human menin-MLL interaction, wild-type MLL peptide | Fluorescence polarization, fluorescein-MLL peptide displacement from menin | FP activity change, % at 61.4 µM | 290,000 tested, under 10 active; inconclusive = falling polarisation curve, or a change in total fluorescence; inactive = total fluorescence flat and polarisation flat or rising; no compound was filed as active; the % refers to the polarisation; negative = inhibition;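 also: % of control where 0% means no effect; inhibitors lower the polarisation; unlabelled MLL peptide was the positive control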
gsp antag: antagonists of gsp mutant (McCune-Albright syndrome); Potency, µM (top dose mostly 76.9 µM), for inactives: at the highest dose activity change, negative = inhibition, most hits filed as inhibitors; gsp-mutant cells, cAMP HTRF, 30 min; control for the full effect not named in the record; actives 0.4% (n = 340,000); active = falling curve of any shape with a large fitted effect; inconclusive = falling curve, mostly with a smaller effect; inactive = flat or rising curve; cell line not stated here;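 also: intracellular cAMP measured with PDE inhibitor Ro 20-1724 present during compound exposure; potency is read from the fitted curve at half-maximal effect; % is scaled to controls: 0 for no effect and ±100 for the full control effect; nearly all actives have a fitted effect of over 65% in size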
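G418-selected cells were plated in DMEM/10% FBS for 16-24 h at 37C, then treated with compounds plus the PDE inhibitor […] (300 uM solution added) for 30 min at 37C. Intracellular cAMP was measured by HTRF after 30 min lysis at room temperature.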
gsp ag: agonists of gsp mutant (McCune-Albright syndrome) | gsp mutant cells, cAMP HTRF, 30 min; control for the full effect not named in the record | Potency, µM (titrated, usually from 76.9 µM), for the others: at the top dose activation (cAMP increase), actives largely listed as activators | actives 0.13% (n = 340,000); active = well fitted activation curve with a large enough effect; inconclusive = small, poorly fitted or top-dose-only effect, or another doubt; inactive = no such curve, though single readings can be large or run the other way; cell line not stated here;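 also: phosphodiesterase inhibitor Ro 20-1724 added with compounds to block cAMP breakdown; potency is read from the fitted curve at half-maximal effect; nearly all actives have a fitted effect of over 60% in size; about a fifth of the inactives were tested at one dose only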
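Cells stably selected in G418 were plated at 2000/well, grown 16-24 hr, then given compounds in DMSO with the PDE inhibitor […] (300 uM solution added) for 30 min at 37C; cAMP was read by HTRF.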
The depositor's hits bear a star; [ ] = remark or other dose.

How did CCOC(=O)CNC(=O)C1c2ccccc2C(=O)N(c2ccc(OC)cc2)C1c1ccc(OC)cc1 (stereo not drawn) do in these assays?
TRPV1 PAM: 15; Sfp inh: 13%; ClpP mod: -1.6%; TRPML1 blocker: 6; Menin-MLL FL inh: 3.9; gsp antag: -12%; gsp ag: -93%[inhibitor]

What do the screens show for `Cc1ccc(C)c(NC(=O)Cn2ccn(-c3ccc4c(c3)OCO4)c(=O)c2=O)c1`?
TRPV1 PAM: 13; ClpP mod: -0.4%; TRPML1 blocker: -7; gsp antag: 11%; gsp ag: 6%[15.4 µM]

Results for COC(=O)c1ccc(Cn2nc(-c3ccccc3)ccc2=O)cc1 ?
TRPV1 PAM: -2; Sfp inh: -3%; ClpP mod: -15%; TRPML1 blocker: 25; Menin-MLL FL inh: -4.5; gsp antag: -7%; gsp ag: -1%

Results for Clc1ccc(Cl)c(-c2nn3c(COc4ccccc4)nnc3s2)c1 ?
TRPV1 PAM: 22; Sfp inh: 14µM*; ClpP mod: 1.2%; TRPML1 blocker: 0; Menin-MLL FL inh: 12; gsp antag: 3%; gsp ag: -28%

How did Cc1ccccc1Cc1c(C)nc2c(C(=O)NCc3ccco3)cnn2c1C do in these assays?
TRPV1 PAM: -12; Sfp inh: 50µM*; ClpP mod: 32µM*; TRPML1 blocker: inconclusive; Menin-MLL FL inh: 1.6; gsp antag: -1%; gsp ag: -13%

Results for CCOc1cccc(C(=O)N2CCCN(C)CC2)c1 ?
TRPV1 PAM: -38; Sfp inh: 14%; ClpP mod: -2.1%; Menin-MLL FL inh: -0.3; gsp antag: 9%; gsp ag: -30%

Results for Cc1ccc2nc(NC(=O)c3cc(-c4ccco4)nc4ccccc34)sc2c1 ?
TRPV1 PAM: -7; Sfp inh: -2%; ClpP mod: 18µM*; TRPML1 blocker: -2; Menin-MLL FL inh: -0.6; gsp antag: -3%; gsp ag: 14%

How did COc1cccc(-c2sc3ccc(OC)cc3c2-c2ccc(C(N)=O)cc2)c1 do in these assays?
TRPV1 PAM: 6; ClpP mod: inconclusive; TRPML1 blocker: 7; gsp antag: -11%

Results for COC(=O)C1=CN(CC2CCCO2)C=C(C(=O)OC)C1c1ccsc1 (stereo not drawn) ?
TRPV1 PAM: -44; Sfp inh: 16%; ClpP mod: inconclusive; TRPML1 blocker: -6; Menin-MLL FL inh: 0.8; gsp antag: -5%; gsp ag: 1%

What do the screens show for `C/C(=N\NC(=O)c1cccs1)c1ccc(C(=O)O)s1`?
TRPV1 PAM: 21; Sfp inh: 3%; ClpP mod: -1.0%; TRPML1 blocker: 16; Menin-MLL FL inh: -2.0; gsp antag: -1%; gsp ag: -2%

What do the screens show for `O=C(O)c1cccc(-n2nnnc2SCc2ccccn2)c1`?
TRPV1 PAM: 6; Sfp inh: 7%; ClpP mod: 0.3%; TRPML1 blocker: 3; Menin-MLL FL inh: 0.5; gsp antag: 2%; gsp ag: 21%

Results for CC(C)(C)c1ccc(C(=O)NCC2CCCN2S(=O)(=O)c2ccccc2)cc1 (stereo not drawn) ?
TRPV1 PAM: -15; ClpP mod: 3.0%; TRPML1 blocker: 24; gsp antag: -9%; gsp ag: -7%[15.4 µM]

How did O=C(Cc1ccc(Cl)cc1Cl)NCC1(N2CCOCC2)CCCCC1 do in these assays?
TRPV1 PAM: 14; Sfp inh: 8%; TRPML1 blocker: 4; Menin-MLL FL inh: -1.3; gsp antag: 6%; gsp ag: -12%[15.4 µM]

Results for O=C(NC1CCCCCC1)C1CCN(S(=O)(=O)c2ccccc2)CC1 ?
TRPV1 PAM: -13; Sfp inh: -8%; ClpP mod: -1.9%; TRPML1 blocker: 8; Menin-MLL FL inh: 7.8; gsp antag: -3%; gsp ag: 3%

How did Cc1cc(C(=O)Cn2ncc(Cl)c(Cl)c2=O)c(C)n1CC(F)(F)F do in these assays?
TRPV1 PAM: 0; Sfp inh: 6%; ClpP mod: -3.1%; TRPML1 blocker: -11; Menin-MLL FL inh: -0.2; gsp antag: 8%; gsp ag: 0%

How did Cc1cc(C)cc(NC(=O)c2cc(S(=O)(=O)NCc3ccco3)ccc2F)c1 do in these assays?
TRPV1 PAM: 9; Sfp inh: 9%; ClpP mod: -0.3%; TRPML1 blocker: 2; Menin-MLL FL inh: 1.7; gsp antag: -25%; gsp ag: 9%

How did O=C(OCc1ccc([N+](=O)[O-])cc1)C1CC(=O)N(Cc2ccccc2)C1 (stereo not drawn) do in these assays?
TRPML1 blocker: 6; gsp antag: -3%; gsp ag: -35%[inhibitor]

What do the screens show for `S=C(NCC(c1cccnc1)N1CCOCC1)NC1CCCCC1` (stereo not drawn)?
TRPV1 PAM: -5; Sfp inh: 3%; TRPML1 blocker: 7; Menin-MLL FL inh: -2.6; gsp antag: -3%; gsp ag: -1%

How did CSc1ccccc1C(=O)NCC(c1ccco1)N1CCCCC1 (stereo not drawn) do in these assays?
TRPV1 PAM: 6; Sfp inh: 12%; TRPML1 blocker: 8; Menin-MLL FL inh: -1.9; gsp antag: 2%; gsp ag: 7%[15.4 µM]

What do the screens show for `Cc1oc(-c2cccs2)nc1CSCC(=O)NC1CC1`?
TRPV1 PAM: 9; Sfp inh: 13%; ClpP mod: inconclusive; TRPML1 blocker: 9; Menin-MLL FL inh: 1.9; gsp antag: 8%; gsp ag: inconclusive

How did O=S(=O)([N-]c1nc2ccccc2nc1-[n+]1ccc(Cc2ccccc2)cc1)c1ccc(Br)s1 do in these assays?
TRPV1 PAM: 2; Sfp inh: 19%; ClpP mod: 0.2%; TRPML1 blocker: -23; Menin-MLL FL inh: -26; gsp antag: -4%; gsp ag: -8%[15.4 µM]

How did CCN(CC)S(=O)(=O)c1cccc(C(=O)NC(Cc2c[nH]c3ccccc23)c2nnc3n2CCCCC3)c1 (stereo not drawn) do in these assays?
TRPV1 PAM: 7; Sfp inh: 6%; ClpP mod: -3.7%; TRPML1 blocker: 10; Menin-MLL FL inh: 1.0; gsp antag: 1%; gsp ag: 3%

What do the screens show for `Cc1ccc(-c2nc(C(Cl)Cl)c3ccccc3n2)cc1`?
TRPV1 PAM: 3; Sfp inh: 1%; ClpP mod: -1.2%; Menin-MLL FL inh: 0.1; gsp antag: 9%; gsp ag: -5%

How did CCCN(CC(=O)Nc1ccccc1C)C(=O)CCCc1c[nH]c2ccccc12 do in these assays?
TRPV1 PAM: -1; ClpP mod: -6.5%; TRPML1 blocker: -19; gsp antag: 1%; gsp ag: -9%

How did O=C(O)CCC(=O)NCc1ccc(F)cc1 do in these assays?
TRPV1 PAM: -8; Sfp inh: 10%; ClpP mod: -0.1%; TRPML1 blocker: 21; Menin-MLL FL inh: -0.7; gsp antag: 12%; gsp ag: -12%

What do the screens show for `CN(C(=O)c1cccc(NC(=O)Cc2cccc([N+](=O)[O-])c2)c1)C1CCCC1`?
ClpP mod: -2.6%; TRPML1 blocker: 2; gsp antag: -14%

How did O=C(CSc1nncn1-c1ccccc1)NC1CCCc2ccccc21 (stereo not drawn) do in these assays?
TRPV1 PAM: 3; Sfp inh: 13%; TRPML1 blocker: -2; Menin-MLL FL inh: 1.2; gsp antag: -2%; gsp ag: 1%[15.4 µM]

What do the screens show for `COc1ccc(S(=O)(=O)n2c([N+](=O)[O-])cnc2C)c(C)c1C`?
TRPV1 PAM: -19; Sfp inh: 5%; TRPML1 blocker: -3; Menin-MLL FL inh: -1.8; gsp antag: -6%; gsp ag: -74%[inhibitor]

How did O=S(=O)(Cc1ccccc1)C(CCCc1ccccc1)S(=O)(=O)Cc1ccccc1 do in these assays?
ClpP mod: 0.6%; TRPML1 blocker: 19; gsp antag: 1%; gsp ag: 12%

What do the screens show for `COc1cc(C(C2=C(O)CC(C)(C)CC2=O)C2C(=O)CC(C)(C)CC2=O)cc(OC)c1OC` (stereo not drawn)?
TRPV1 PAM: -1; Sfp inh: 50µM*; TRPML1 blocker: 82; Menin-MLL FL inh: -1.1; gsp antag: -14%; gsp ag: -9%[15.4 µM]

Results for COc1ccc(Cc2nc(-c3ccc(Br)cc3)no2)cc1 ?
TRPV1 PAM: 8; Sfp inh: 9%; ClpP mod: -0.4%; TRPML1 blocker: 13; Menin-MLL FL inh: 4.7; gsp antag: -2%; gsp ag: -11%

Results for O=S(=O)(NCCO)c1ccc2c(c1)Cc1cc(S(=O)(=O)NCCO)ccc1-2 ?
TRPV1 PAM: 2; Sfp inh: 12%; ClpP mod: -1.8%; TRPML1 blocker: -4; Menin-MLL FL inh: -1.3; gsp antag: 6%; gsp ag: 15%[15.4 µM]

What do the screens show for `COc1ccc(OC)c(NC(=O)CCC(=O)Nc2nnc(C(C)C)s2)c1`?
TRPV1 PAM: 15; Sfp inh: -5%; TRPML1 blocker: 8; gsp antag: 0%; gsp ag: -21%

What do the screens show for `CCCCn1c(N)c(N(CCOC)C(=O)CSc2n[nH]c(-c3ccc(OC)cc3)n2)c(=O)[nH]c1=O`?
TRPV1 PAM: 2; Sfp inh: 20%; ClpP mod: 1.3%; TRPML1 blocker: 2; gsp antag: -2%; gsp ag: -1%[15.4 µM]

What do the screens show for `Cc1ccc2[nH]c(=O)c(CN(CCc3ccccc3)C(=O)N3CCOCC3)cc2c1`?
TRPV1 PAM: 8; Sfp inh: 8%; ClpP mod: 14µM*; TRPML1 blocker: 11; Menin-MLL FL inh: 2.0; gsp antag: 3%; gsp ag: 3%

How did Cc1ccc(Nc2ncnc3c2cnn3C)cc1 do in these assays?
TRPV1 PAM: -12; Sfp inh: 17%; ClpP mod: -4.1%; TRPML1 blocker: 1; Menin-MLL FL inh: -0.5; gsp antag: -8%; gsp ag: inconclusive

What do the screens show for `Cc1c(Cl)c([N+](=O)[O-])nn1Cc1ccc(C(=O)N/N=C\c2ccccn2)o1`?
TRPV1 PAM: 18; Sfp inh: -4%; ClpP mod: -2.7%; TRPML1 blocker: -1; Menin-MLL FL inh: 9.9; gsp antag: -8%; gsp ag: inconclusive

Screening results: PubChem BioAssay, National Center for Advancing Translational Sciences (NCATS)
